Source: PubChem BioAssay (several laboratories)
PrP UTR inh = inhibition of PrP 5' UTR reporter expression; inhibition, % (test concentration not listed); cell-based PrP 5' UTR mRNA reporter, plate reader; hit rate 0.35% among 340,000;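 active = every replicate at 50% or more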;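 also: 0 = median of the neutral control wells; tested in H4 reporter cells; numbers are from one replicate; inactives centre near -14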
Mtb hypoxia rep = PubChem AID 1159583; M. tuberculosis hypoxia-regulated fluorescent reporter, fluorescence; fluorescence inhibition, % (test concentration not listed); hit rate 0.1% among 300,000;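 active = 35 to 45% if threefold the growth effect, above 45% if 1.5-fold the growth effect; inactive = the rest, general growth blockers included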;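 also: wells of about 50 µL received 100 nL stock; 0% = vehicle wells and 100% = reference inhibitor wells; whole bacteria with a GFP reporter of the hypoxia response; strong numbers were not always called active; many hits fall short of the cut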
Bead autofluor = counter-screen for toxin protease inhibitors: compound fluorescence | compound autofluorescence counterscreen, microsphere flow cytometry; active compounds read high | hit rate 3.1% among 360,000 | fluorescence intensity (test concentration not listed);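 active = at least 3 SD above the mean of all compounds, about 16000 in these data; inconclusive = too few beads counted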;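 also: 100 nL of 1 mM stock went into each well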
Sa ugtP lethal = growth inhibition of ugtP-null S. aureus, primary screen, RN4220 ugtP deletion, OD600; 16 h; some inactives read as strong as hits; growth inhibition, % (test concentration not listed); hit rate 0.54% among 330,000;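 active = z-score under -3 and OD600 up to 0.15 on both plates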;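 also: plate controls were untreated wells for no effect and antibiotic for full effect; wells of about 80 µL received 100 nL stock; the first replicate is given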
Sa RN4220 lethal = growth inhibition of S. aureus RN4220, primary screen, OD600 | 16 h | inhibition, % (no concentration beside the values) | hit rate 0.33% among 330,000;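 active = z-score of -3 or lower and OD600 up to 0.18 on both plates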;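 also: plate controls were untreated cells for no effect and reference antibiotic for full effect; stock transfer was 100 nL into about 80 µL; one replicate is shown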
BJeLR lethal = MLPCN primary cell-based screen for lethality selective to Ras in HRASV12 cells. BJeLR (HRASV12) viability, CellTiter-Glo ATP luminescence, 48 h; reference of the scale not given here. inhibition, % (concentration not given with the values). hit rate 0.17% among 300,000;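 active = replicate mean above 50%; inconclusive = above 50% but judged a plate artefact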;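 also: 50 nL library stock added to about 25 µL; numbers are from one replicate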
Mtb hypoxia rep growth = further read-out of Mtb hypoxia rep, marked with its call; growth inhibition, %; measured here: M. tuberculosis growth (absorbance);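 0% = vehicle and 100% = reference antibiotic; read after six days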
* marks the source's active call; other numbers are inactive results; ? = inconclusive; . = no result given; & = joins results of further samples. An unsorted share of the library; any-hit rate near 3.9%.

Each structure is followed by: PrP UTR inh	Mtb hypoxia rep	Mtb hypoxia rep growth	Bead autofluor	Sa ugtP lethal	Sa RN4220 lethal	BJeLR lethal
1. CCCn1c(SCC(=O)Nc2ccccc2N2CCCCC2)nc2c1c(=O)n(C)c(=O)n2C
  -16	4	2	7872	17	3.1	-9
2. COc1ccc(NC(=O)C(c2ccccc2)N(C)C(=O)CNC(C)=O)cc1 (stereo unspecified)
  3	1	0	3389	13	3.1	1
3. CCCCNC(=O)C1c2cc(OC)c(OC)cc2C(=O)N(C)C1c1cccs1 (stereo unspecified)
  81*	4	-2	4188	-1	5.4	-8
4. O=C(CSc1ccc2ccccc2n1)NCc1ccc2c(c1)OCO2
  -22	5	-4	3000	8	8.5	-7
5. O=C(CN1CCc2ccccc2C1)Nc1cccc(S(=O)(=O)N2CCCC2)c1
  -21	6	8	4782	0	2.2	-2
6. Cc1ccc(CC(=O)NC(C)CCc2ccccc2)cc1 (stereo unspecified)
  -7	.	.	4889	6	0.8	-2
7. Cc1ccc(S(=O)(=O)Oc2ccc(/C=N/NC(=O)c3cccnc3)cc2)cc1
  -14	.	.	2483	.	.	-7
8. CCN(CC)c1nc(Nc2ccccc2)nc(Oc2ccc(C(=O)OC)cc2)n1
  -14	7	1	8534	-16	30	3
9. COc1cccc(-c2nnc(SCC(=O)N3CCCc4ccccc43)o2)c1
  -14	.	.	5188	-21	-0.4	12
10. CCOC(=O)N1CCN(C(=O)c2c[nH]c3ccc(S(=O)(=O)N(C)c4ccc(OCC)cc4)cc3c2=O)CC1
  -6	10	13	5779	3	4.1	-16
11. COCCn1c(SCC(=O)c2c(N)n(C3CC3)c(=O)[nH]c2=O)nnc1-c1cccc(C)c1
  -4	.	.	2972	4	1.9	.
12. Cc1nc2ccccc2n1C1CCN(Cc2nnnn2CCc2ccccc2)CC1
  -8	8	10	7934	4	3.8	2
13. CC(=O)c1ccc(NC(=O)/C(=C\c2ccccc2)NC(=O)/C=C/c2ccccc2)cc1
  -17	4	12	8519	-2	1.3	-4
14. COc1cc(S(=O)(=O)Nc2ncn[nH]2)ccc1Cl
  -14	2	2	6006	5	2.3	-6
15. Cn1c(-c2ccccc2)cnc1SCC(=O)NCc1ccco1
  -18	-4	14	9707	1	4.5	4
16. O=C(c1cccs1)N1CCN(C23CC4CC(CC(C4)C2)C3)CC1
  -10	0	5	5470	5	2.0	-6
17. CC1(C)CC(NC(=O)c2cc(S(=O)(=O)N3CCOCC3)c(Cl)cc2Cl)CC(C)(C)N1
  3	4	2	?	2	1.4	7
18. O=C(N/N=C/c1c(O)ccc2ccccc12)c1ccc(CO)nc1
  24	.	.	3979	.	.	17
19. COc1cc(C(=O)NC2CCN(CC(=O)NC3CCCCC3C)CC2)cc(OC)c1OC (stereo unspecified)
  -24	3	-1	4242	1	3.2	-5
20. CN(C)c1ccc(NC(=O)CSc2nc3ccccc3c(=O)n2C2CCCCC2)cc1
  -6	7	21	4284	-10	-1.2	-8

Full records, quoted from the list. Values in the order: PrP UTR inh, Mtb hypoxia rep, Mtb hypoxia rep growth, Bead autofluor, Sa ugtP lethal, Sa RN4220 lethal, BJeLR lethal
O=C(CN1CCc2ccccc2C1)Nc1cccc(S(=O)(=O)N2CCCC2)c1 reads -21, 6, 8, 4782, 0, 2.2, -2
CCOC(=O)N1CCN(C(=O)c2c[nH]c3ccc(S(=O)(=O)N(C)c4ccc(OCC)cc4)cc3c2=O)CC1 reads -6, 10, 13, 5779, 3, 4.1, -16
COCCn1c(SCC(=O)c2c(N)n(C3CC3)c(=O)[nH]c2=O)nnc1-c1cccc(C)c1 reads -4, ., ., 2972, 4, 1.9, .

Continuation.
Each structure is followed by: PrP UTR inh	Mtb hypoxia rep	Mtb hypoxia rep growth	Bead autofluor	Sa ugtP lethal	Sa RN4220 lethal	BJeLR lethal
21. CCc1nnc(NC(=O)CCS(=O)(=O)c2ccc(C)cc2)s1
  -12	7	1	4665	6	3.4	-5
22. CC12CCC(C(=O)Nc3cccc(Cl)c3Cl)([C@H](Br)C1=O)C2(C)C (stereo partly specified)
  -15	0	10	4499	-1	6.6	10
23. O=C(Nc1cccnc1)c1ccccc1Cl
  -20	12	-3	4589	3	2.4	-6
24. Cc1ccc(N=C2NC(=O)/C(=C/C=C/c3ccco3)S2)cc1
  -22	4	8	2552	-14	6.1	-29
25. O=C(NCCC1=CCCCC1)C1CCN(Cc2cnn(-c3ccccc3)c2-n2cccc2)CC1
  -7	15	15	2972	-2	-11	-3
26. Nc1nncn1C(=O)c1ccc(Cl)cc1Cl
  -14	10	10	4377	5	6.4	4
27. Nc1ccc(Cc2ccc(N)cc2)cc1
  -12	7	4	4117	4	3.1	.
28. CCN(CC)S(=O)(=O)c1cc(C(=O)OCC(=O)Nc2c(F)cccc2F)ccc1F
  -21	-1	-1	2134	-1	0.2	3
29. CN1CCc2c(sc(N)c2C(=O)O)C1
  -17	2	11	3274	1	1.6	1
30. O=C1c2ccccc2C(=O)c2c1cccc2N1CCCC1
  -4	7	2	1360	16	12	-2
31. CC(C)(C)c1ccc(C=NN2CCN(c3ccccn3)CC2)cc1
  .	-4	21	.	1	1.1	.
32. CCN(CC(=O)Nc1c(F)cccc1F)C(=O)Cc1csc(-c2ccc(OC)c(OC)c2)n1
  -17	15	-5	.	7	2.2	5
33. COc1ccc(Br)c(C(=O)Nc2cccc(S(=O)(=O)N3CCOCC3)c2)c1
  -27	3	1	8240	-2	-3.2	.
34. CCOC(=O)C1=C(C)N(c2ccccc2)C(=O)/C1=C\c1cccs1
  -2	1	9	2488	-9	5.2	-5
35. COc1ccc(C2C([N+](=O)[O-])=C(C)N(C)C(=O)N2C)cc1OC (stereo unspecified)
  -13	16	13	4449	14	7.9	0
36. O=S(=O)(NCCCc1ccccc1)c1ccc(Cl)cc1
  -26	10	5	7494	0	3.8	-2
37. CN(C(=O)c1ccno1)c1nnc(-c2cccnc2)s1
  -13	11	2	4009	5	-0.3	0
38. O=C(CSc1ncn[nH]1)N/N=C/c1ccc(F)cc1
  -20	.	.	6094	.	.	11
39. Cc1ccc(-c2csc(C3=C(O)CN(NC(=O)c4ccco4)C3=N)n2)cc1
  -54	-25	3	4717	-6	-2.3	-9
40. CCC(Oc1ccc(F)cc1)C(=O)N1CCCCCCC1 (stereo unspecified)
  -8	10	7	.	-2	0.4	2

Following part
Each structure is followed by: PrP UTR inh	Mtb hypoxia rep	Mtb hypoxia rep growth	Bead autofluor	Sa ugtP lethal	Sa RN4220 lethal	BJeLR lethal
41. OCCNc1nc(Nc2ccccc2C(F)(F)F)nc(N2CCCC2)n1
  0	0	3	2845	-2	1.8	4
42. Cc1c(C#N)c(NC(=O)CCl)n(Cc2ccc(F)cc2)c1C
  -9	16	19	4845	36	38	2
43. COc1cc2c(cc1NC(=O)c1cncc(Br)c1)oc1ccccc12
  -24	.	.	3040	3	7.0	.
44. COc1cccc(C(=O)OCC(=O)NC2CCCc3ccccc32)c1O (stereo unspecified)
  -16	3	12	6696	-10	-2.5	.
45. COc1ccc(C(=O)CC(=O)C(=O)NCCc2cccc(C)c2)cc1
  3	4	11	2750	-1	17	5
46. COc1ccc(C)cc1NC(=O)c1sc2ncn(CC(=O)N3CCCCC3)c(=O)c2c1C
  -6	-1	8	5760	3	-4.8	-3
47. O=C(Oc1ccccc1N1CCOCC1)c1sccc1Br
  -53	-2	-9	4244	8	5.6	2
48. CS(=O)(=O)N(CCc1ccccc1)CC(=O)N1CCN(c2ccccc2F)CC1
  -15	4	3	2814	6	-1.9	1
49. COc1cc(NC(=S)NC(=O)c2ccc(F)cc2)ccc1NC(=O)c1ccco1
  -19	-7	-4	2127	-12	3.4	-16
50. CCN1CCN(c2nc3ccccc3s2)CC1
  -81	-2	5	20785*	-1	-0.6	-13
51. Cc1nc(Nc2cccc(F)c2)c2oc3ccccc3c2n1
  -8	18	7	7643	17	10	-4
52. CCOCC(O)CS(=O)Cc1ccccc1 (stereo unspecified)
  0	6	0	24995*	15	4.7	-4
53. CN(C)S(=O)(=O)c1cccc(NC(=O)C2Cc3ccccc3CN2C(=O)c2ccco2)c1 (stereo unspecified)
  -7	-3	4	4588	0	0.3	4
54. O=C(NN=Cc1ccncc1)c1cc(Br)ccc1OCc1ccccc1
  .	3	10	.	3	-1.6	.
55. COc1ccc(NC(=O)N(C)CC2Oc3ccc(NS(=O)(=O)c4ccccc4)cc3C(=O)N(C(C)CO)CC2C)cc1 (stereo unspecified)
  .	-1	0	.	-4	3.9	.
56. O=C1c2ccccc2C(O)N1Cc1ccc2c(c1)OCO2 (stereo unspecified)
  -37	12	10	4850	-2	-5.5	0
57. COc1cc(NC(=O)C2CCC(CNc3c(N4CCC(C)CC4)c(=O)c3=O)CC2)cc(OC)c1 (stereo unspecified)
  -16&2	-11&6	1&7	3575&4311	-2&15	2.3&3.3	5
58. CC(C)NC(=O)c1ccccc1NC(=O)CCc1ccccc1
  -19	5	3	6256	-5	-0.6	7
59. Cc1noc(C=CN(C)C)c1S(=O)(=O)N1CCCC(C(=O)Nc2ccc3c(c2)OCO3)C1 (stereo unspecified)
  .	5	1	.	6	11	.
60. CCc1ccc(NC(=O)c2cc(CC(C)C)on2)cc1
  -46	7	8	6833	-3	-10.0	3

Reprinted at random: 2 records from the list, in no set order.
Each structure is followed by: PrP UTR inh	Mtb hypoxia rep	Mtb hypoxia rep growth	Bead autofluor	Sa ugtP lethal	Sa RN4220 lethal	BJeLR lethal
42. Cc1c(C#N)c(NC(=O)CCl)n(Cc2ccc(F)cc2)c1C
  -9	16	19	4845	36	38	2
44. COc1cccc(C(=O)OCC(=O)NC2CCCc3ccccc32)c1O (stereo unspecified)
  -16	3	12	6696	-10	-2.5	.

A different layout for 2 compounds above.
No.	smiles	PrP UTR inh	Mtb hypoxia rep	Mtb hypoxia rep growth	Bead autofluor	Sa ugtP lethal	Sa RN4220 lethal	BJeLR lethal
58	CC(C)NC(=O)c1ccccc1NC(=O)CCc1ccccc1	-19	5	3	6256	-5	-0.6	7
59	Cc1noc(C=CN(C)C)c1S(=O)(=O)N1CCCC(C(=O)Nc2ccc3c(c2)OCO3)C1 (stereo unspecified)	.	5	1	.	6	11	.

An excerpt from above, showing only Mtb hypoxia rep:
| nr | Compound | Mtb hypoxia rep |
| --- | --- | --- |
| 47 | O=C(Oc1ccccc1N1CCOCC1)c1sccc1Br | -2 |
| 50 | CCN1CCN(c2nc3ccccc3s2)CC1 | -2 |
| 60 | CCc1ccc(NC(=O)c2cc(CC(C)C)on2)cc1 | 7 |
| 41 | OCCNc1nc(Nc2ccccc2C(F)(F)F)nc(N2CCCC2)n1 | 0 |
| 53 | CN(C)S(=O)(=O)c1cccc(NC(=O)C2Cc3ccccc3CN2C(=O)c2ccco2)c1 (stereo unspecified) | -3 |
| 49 | COc1cc(NC(=S)NC(=O)c2ccc(F)cc2)ccc1NC(=O)c1ccco1 | -7 |
| 58 | CC(C)NC(=O)c1ccccc1NC(=O)CCc1ccccc1 | 5 |

More entries
Each structure is followed by: PrP UTR inh	Mtb hypoxia rep	Mtb hypoxia rep growth	Bead autofluor	Sa ugtP lethal	Sa RN4220 lethal	BJeLR lethal
61. O=C(NNC(=O)c1sccc1-n1cccc1)c1ccccc1
  -26	.	.	2831	7	31	4
62. CCC(O)(CC)C(=O)N=Nc1c(O)[nH]c2ccccc12
  -23	5	2	3907	8	-2.7	-24
63. Cn1c(C(F)(F)F)nc2c(=O)oc3ccccc3c21
  -3	8	4	3229	1	3.3	3
64. CCN1C(=O)c2ccccc2S(=O)c2ccc(C(=O)NCc3ccccn3)cc21 (stereo unspecified)
  -36	8	14	5550	-6	-7.4	8
65. C=C(C)Cn1c(C2CC(=O)N(c3ccccc3F)C2)nc2ccccc21 (stereo unspecified)
  -27	6	-2	5620	6	0.6	-11
66. Cc1nc2sc(C(c3ccco3)N3CCN(c4ccccc4F)CC3)c(O)n2n1 (stereo unspecified)
  -21	8	6	9414	4	4.8	20
67. S=C(NCc1ccco1)NCc1ccccc1Cl
  -11	13	0	7096	6	-0.6	14
68. CCCCOc1ccc(C(=O)C(CN2CCOCC2)c2ccccc2)cc1 (stereo unspecified)
  -20	17	16	3486	78	11	6
69. COc1ccccc1C(=O)Nc1c[nH]c(=O)[nH]c1=O
  11	6	-8	4248	5	0.0	0
